# Assay outcomes (PubChem)
# A1 inh – caspase 3/7 activation in MEF A1-2A-BIM cells, primary screen, A1 inhibitor project, cell-based, luminescence, HTS; caspase activation, % (concentration not given with the values); Caspase-Glo 3/7 luminescence, 3 h; percent of clofoctol response, vehicle zero; actives 0.066% (n = 330,000); AID 2462, 2010;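 active = over half of replicate activation scores above 10%, or exactly half above 10 with the replicate mean above 10; inconclusive = replicate mean below 10 yet half the replicates above 10; inactive = over half of replicates below 10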;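 also: wells of about 30 µL received 50 nL stock; many hits fall short of the cut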
# T cruzi repl – inhibitors of intracellular T. cruzi growth, primary screen, luminescence, NIH3T3 host cells. inhibition, % (no concentration beside the values). AID 1885, 2009. actives 1.4% (n = 300,000). T. cruzi beta-gal in NIH3T3, 90 h;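 active = mean inhibition across valid replicates above about 55%, limit read from the data; inconclusive = mean below that limit but half or more replicates reach it; inactive = mean below it, under half of replicates reach it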;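 also: signal also drops with host cell toxicity which is not excluded here; 0% = plate median of DMSO wells and 100% = zero luminescence signal; higher percent means less beta-gal luminescence so fewer parasites; stock transfer was 50 nL into about 50 µL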
# FGF22 binding – binders of human FGF22 protein, primary screen, FGF22 synaptogenesis inhibitor project, biophysical, thermal shift, single point; Fibroblast growth factor 22 (Homo sapiens), Q9HCT0; recombinant FGF22 thermal shift, SYPRO orange fluorescence; percent of sucrose octasulfate shift, DMSO zero; calls only at 9.99 µM; actives 1.5% (n = 340,000); AID 651658, 2012;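 active = melting point raised past a set limit in the mean and every replicate; inconclusive = no clear call; three in four hits are not shown here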
# Target sequence (Q9HCT0 whole entry, looked up): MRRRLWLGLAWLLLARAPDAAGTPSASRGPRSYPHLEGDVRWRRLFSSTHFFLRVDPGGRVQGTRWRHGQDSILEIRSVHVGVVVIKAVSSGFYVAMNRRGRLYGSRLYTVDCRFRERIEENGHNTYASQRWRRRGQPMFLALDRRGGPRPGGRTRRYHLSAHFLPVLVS
# Beta cell apopt – inhibitors of cytokine-induced beta cell apoptosis, primary screen, luminescence; INS-1E cytokine-induced death, ATP luminescence, 48 h; percent of positive-control rescue, neutral wells zero; protection from apoptosis, % (test concentration not listed); actives 0.8% (n = 300,000); AID 435005, 2010;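 active = all replicates at 75% or more, or half of them and the mean; inconclusive = half reach 75% but not the mean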;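 also: 0% = cytokine-treated negative control wells and 100% = positive control rescue; higher means more ATP so stronger rescue from cytokine killing; wells of about 40 µL received 100 nL stock; the first replicate is given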
# Ecoli rRNA inh – reduced GFP signal of wild-type E. coli, primary screen, bacterial rRNA inhibitor project, GFP/RFP fluorescence, OD600, single point; E. coli WT GFP vs humanized-ribosome RFP mutants, 24 h; active compounds read low; DMSO median 0, no signal -100; GFP signal change (wild-type ribosome), % (no concentration beside the values); actives 1.6% (n = 350,000);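 active = significant combined selectivity score with lowered wild-type GFP, culture density cut under 30%, mutant RFP and density less affected; inactive = any of these conditions unmet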; also: one replicate is shown; some compounds called inactive have numbers as strong as hits
# MLL AF4-AF9 inh – inhibitors of AF4 peptide binding to AF9, primary screen, biochemical, AlphaScreen, biotin-AF4 peptide, FLAG-AF9, single point; Protein AF-9 (Homo sapiens), P42568; inhibition, % at 10 µM; actives 0.47% (n = 350,000); AID 651704, 2012;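 active = every replicate reaching a set inhibition limit, whatever the replicate mean, cut at about 25% in these data; inconclusive = mean inhibition reaches that limit but some replicates miss it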;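 also: 0% = plate neutral control median and 100% = total signal loss; the record names both 10 and 1 µM as test concentration; the first replicate is given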
# Target sequence (P42568 whole entry, looked up): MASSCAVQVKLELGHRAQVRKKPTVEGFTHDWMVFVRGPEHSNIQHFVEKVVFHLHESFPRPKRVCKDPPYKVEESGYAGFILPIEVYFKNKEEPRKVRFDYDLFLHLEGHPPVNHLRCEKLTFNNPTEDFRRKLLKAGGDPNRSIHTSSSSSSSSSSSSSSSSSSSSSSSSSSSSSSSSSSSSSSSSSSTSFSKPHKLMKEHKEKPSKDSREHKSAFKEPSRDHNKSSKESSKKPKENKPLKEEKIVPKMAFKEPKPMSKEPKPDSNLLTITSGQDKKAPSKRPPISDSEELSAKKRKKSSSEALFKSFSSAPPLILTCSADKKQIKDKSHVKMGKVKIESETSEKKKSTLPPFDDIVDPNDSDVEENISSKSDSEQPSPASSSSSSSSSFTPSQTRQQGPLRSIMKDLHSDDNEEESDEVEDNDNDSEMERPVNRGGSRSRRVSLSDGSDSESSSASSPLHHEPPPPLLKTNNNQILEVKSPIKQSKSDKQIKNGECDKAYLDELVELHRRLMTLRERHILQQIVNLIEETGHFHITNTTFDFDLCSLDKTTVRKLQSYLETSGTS
# E coli growth – E. coli growth inhibition, primary screen, OD600. actives 0.21% (n = 330,000). Escherichia coli growth, 23 h; active compounds read low. OD600 absorbance (no concentration beside the values). AID 1053175, 2014;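 active = OD600 absorbance below the run mean of sample wells minus 3.6 SD, in any replicate, cut at about 0.56 in these data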;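 also: stock transfer was 300 nL into about 60 µL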
# UCH37 DUB inh – inhibitors of human UCH37 deubiquitinase, primary screen, biochemical, Ub-AMC cleavage, fluorescence; Ubiquitin carboxyl-terminal hydrolase isozyme L5 (Homo sapiens), Q9Y5K5; purified proteasome/UCH37; inhibition, % (concentration not given with the values); actives 0.33% (n = 330,000);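 active = mean of two replicates above 20%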;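 also: 0% = compound-free wells with enzyme and 100% = wells lacking proteasome; stock transfer was 100 nL into about 20 µL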
# Target sequence (Q9Y5K5 whole entry, looked up): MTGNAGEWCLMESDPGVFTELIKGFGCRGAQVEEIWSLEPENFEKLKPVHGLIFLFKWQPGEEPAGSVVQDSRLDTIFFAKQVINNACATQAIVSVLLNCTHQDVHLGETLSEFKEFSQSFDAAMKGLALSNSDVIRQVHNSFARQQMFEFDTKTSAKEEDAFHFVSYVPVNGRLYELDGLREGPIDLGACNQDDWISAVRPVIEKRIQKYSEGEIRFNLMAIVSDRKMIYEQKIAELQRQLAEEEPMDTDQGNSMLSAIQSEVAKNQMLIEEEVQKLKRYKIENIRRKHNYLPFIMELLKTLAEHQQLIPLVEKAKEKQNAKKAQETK
#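 Material: Human UCH37 enzyme supplied as purified proteasome complex | Schedule: 30 min preincubation with enzyme, 25 min cleavage at room temperature | Detection: AMC fluorescence 355/460 nm | Measure: % inhibition of Ub-AMC cleavage fluorescence | Controls: Wells without proteasome as full block, compound-free enzyme plus substrate as uninhibited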
# Ecoli rRNA inh OD600 – also measured in Ecoli rRNA inh; calls as there; OD600 change, %; measured here: OD600 growth;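 optical density of the mix in the first replicate; 0 = DMSO median and -100 = no signal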
# Ecoli rRNA inh RFP – second read-out of Ecoli rRNA inh, no call of its own (marks repeat the call); RFP signal change, %; measured here: RFP humanized mutant strains;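 first replicate; 0 = DMSO median and -100 = no signal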
# The depositor's hits bear a star; i = inactive; u = inconclusive; x = not tested or not shown.
No.	SMILES	A1 inh	T cruzi repl	FGF22 binding	Beta cell apopt	Ecoli rRNA inh	Ecoli rRNA inh OD600	Ecoli rRNA inh RFP	MLL AF4-AF9 inh	E coli growth	UCH37 DUB inh
1	CN(C)C(=O)Cn1c(=O)n(S(=O)(=O)c2ccccc2)c2ccccc21	-0.6	-4	i	-4	5	-2	1.2	2.1	0.67	2.2
2	c1ccc(-c2nnc(-c3ccncc3)nc2-c2ccccc2)cc1	-0.7	42	i	-18	-3	2	7.9	3.4	0.71	-1.3
3	NS(=O)(=O)c1ccc(Nc2nc3ccccc3nc2NS(=O)(=O)c2cccc([N+](=O)[O-])c2)cc1	-0.8	1	i	-12	-17	-15	-16	1.8	0.61	13
4	CCOC(=O)c1ccc(NC(=O)Nc2ccc3c(c2)OCCO3)cc1	-0.6	17	x	5	x	x	x	x	0.62	-2.6
5	O=C(Nc1ccc(Cl)cc1)NN1CCCCCC1	x	x	i	x	-32	-44	-1.0	-11	0.62	3.4
6	COCCCNC(=O)CCc1c(C)c2cc3c(C)coc3cc2oc1=O	-1.2	1	i	4	-6	1	0.5	-1.8	0.66	-85
7	COc1cccc(CCc2nnc(CCC(=O)NC(C)Cc3cccs3)o2)c1 (stereo not given)	-0.9	u	i	1	-7	0	2.1	-23	0.73	2.5
8	CC(=O)Nc1ccc(C2(c3ccc(NC(C)=O)cc3)C(=O)Nc3ccccc32)cc1	0.0	10	i	3	2	-4	-2.7	u	0.68	2.3

# Among those listed so far, these have four or more nitrogen atoms.
No.	SMILES	A1 inh	T cruzi repl	FGF22 binding	Beta cell apopt	Ecoli rRNA inh	Ecoli rRNA inh OD600	Ecoli rRNA inh RFP	MLL AF4-AF9 inh	E coli growth	UCH37 DUB inh
2	c1ccc(-c2nnc(-c3ccncc3)nc2-c2ccccc2)cc1	-0.7	42	i	-18	-3	2	7.9	3.4	0.71	-1.3
3	NS(=O)(=O)c1ccc(Nc2nc3ccccc3nc2NS(=O)(=O)c2cccc([N+](=O)[O-])c2)cc1	-0.8	1	i	-12	-17	-15	-16	1.8	0.61	13

# (listing goes on)
No.	SMILES	A1 inh	T cruzi repl	FGF22 binding	Beta cell apopt	Ecoli rRNA inh	Ecoli rRNA inh OD600	Ecoli rRNA inh RFP	MLL AF4-AF9 inh	E coli growth	UCH37 DUB inh
9	O=C1CN(C(=O)COC(=O)CNC(=O)c2ccccc2)c2ccccc2N1	1.1	-13	i	-4	1	4	1.7	-0.4	0.67	1.0
10	CCn1cc(C(=O)N2CC(C)CC(C)C2)c(=O)c2cc(S(=O)(=O)N3CCOCC3)ccc21 (stereo not given)	0.3	4	x	8	x	x	x	x	0.67	5.1
11	CC1Cc2ccccc2N1C(=O)COC(=O)c1ccc(Br)o1 (stereo not given)	0.8	4	x	-18	-19	-13	-3.4	0.9	0.7	4.1
12	Cn1c(=O)oc2cc(S(=O)(=O)N3CCCC(C(=O)NC4CCCc5ccccc54)C3)ccc21 (stereo not given)	0.6	-17	i	-2	6	6	0.3	9.3	0.75	3.7
13	Cn1nnc2c(NCc3ccco3)nccc21	-0.3	-11	x	-10	x	x	x	x	0.65	-50
14	CC(C)CC(C(=O)Nc1oc(-c2ccccc2)c(-c2ccccc2)c1C#N)N1C(=O)c2ccccc2C1=O (stereo not given)	-0.1	-2	x	4	x	x	x	x	0.73	4.3
15	Cc1cccc(-n2c(C)cc(/C=C3\NC(=O)NC3=O)c2C)c1	-0.1	12	i	x	2	3	3.9	6.1	0.64	2.2
16	O=C(Nc1cccc(F)c1)c1c(O)c2ccccc2[nH]c1=O	0.7	-6	i	2	13	4	1.8	2.3	0.63	-4.1
17	C=CCNC(=O)c1onc(CSc2ccc(F)cc2)c1C(=O)NCC=C	0.2	-18	i	6	7	5	3.1	4.3	0.68	1.9
18	CC(NCc1ccccc1)C1COc2ccccc2O1 (stereo not given)	0.6	30	x	-5	x	x	x	x	0.72	1.3
19	O=S(=O)(c1ccc(F)cc1)N1CCN(Cc2ccccc2C(F)(F)F)CC1	0.3	2	x	3	x	x	x	x	0.69	1.5
20	CN(C)C(CNS(=O)(=O)c1ccc(F)cc1)c1cccnc1 (stereo not given)	1.0	0	i	1	3	3	-1.3	-12	0.76	1.6
21	CCCC(=O)c1c[nH]c(C(=O)N2CCOCC2)c1	0.4	-5	i	-5	19	12	-8.6	-6.2	0.63	5.3
22	O=C(Nc1cccnc1)OC1CCCC1	1.5	-7	i	-1	3	8	2.7	0.0	0.68	1.4
23	Cn1c(NC(=O)c2ccco2)c(-c2ccc(Cl)cc2)c(=O)c2ccccc21	0.4	-3	x	0	x	x	x	x	0.67	5.6
24	Cc1nnc(SCC(=O)Nc2cccc(N)c2)n1-c1ccccc1	-0.1	-2	i	x	6	12	4.5	0.4	0.65	0.5
25	COc1ccccc1C1CC(c2ccccc2)=NN1S(=O)(=O)c1ccccc1 (stereo not given)	-0.2	4	i	3	-7	-4	3.1	-54	0.68	0.6
26	O=C(CCN1C(=O)COc2ccccc21)N1CCN(c2ccccc2)CC1	0.9	-7	i	4	-5	-2	-4.6	-1.1	0.72	-1.4
27	COc1cccc(CNC(=O)c2cc(S(=O)(=O)N3CCCCC3)c[nH]2)c1	0.2	-8	i	-8	1	-5	0.3	-1.6	0.72	6.7
28	S=C(NCc1ccco1)Nc1ccccc1	-0.6	-3	i	0	9	1	-0.5	0.2	0.69	3.0
29	COCCN(C(=O)c1csnn1)C(C(=O)NC1CCCC1)c1ccccc1 (stereo not given)	0.3	0	i	-1	2	3	-3.0	-2.7	0.59	0.6
30	CS(=O)(=O)c1ccc(Cl)c(NC(=O)CSc2nnc(-c3cccs3)n2N)c1	-0.1	x	i	-2	3	13	-1.0	-7.7	0.64	-0.2
31	C/C(Nc1ccccc1C(F)(F)F)=C1/CCOC1=O	0.4	-1	i	-2	22	14	3.1	-1.6	0.7	2.3
32	COc1cccc(CNC(=O)CSc2nnc3c(n2)[nH]c2ccc(C)cc23)c1	-0.4	10	i	-1	1	6	5.4	1.9	0.71	5.3
33	O=C1CCCC(=O)N1c1ccc(F)cc1	0.4	0	i	6	5	8	-1.2	-5.7	0.64	3.6
34	C=CC(=O)N(CCC)C(c1ccccc1)c1ccccc1OC (stereo not given)	-1.5	-2	i	3	-41	-54	-11	x	0.65	0.4
35	COc1ccc2[nH]c(C(=O)Nc3ccc(F)cc3Br)cc2c1	3.7	-16	x	8	-3	2	-1.1	0.5	0.68	-12
36	Cc1nc(N(C)C)c2sc(=S)n(-c3ccccc3)c2n1	0.0	4	i	-1	10	5	-1.0	-0.1	0.72	2.5
37	O=C(c1ccsc1)N1CCN(C(=O)c2cccs2)CC1	0.3	-2	x	1	8	5	-3.0	x	0.68	2.1
38	CCN1CCN(C(=O)c2ccc3c(c2)N(Cc2ccccc2F)C(=O)c2ccccc2S3(=O)=O)CC1	x	10	i	x	1	6	1.0	-0.4	0.66	0.3
39	O=C(Nc1cc([N+](=O)[O-])ccc1F)C1CCN(S(=O)(=O)c2cccs2)CC1	-0.1	x	i	-1	-5	4	2.4	5.8	0.61	2.2
40	CC(C)(C)NC(=O)CN(Cc1ccc2c(c1)OCO2)C(=O)CNS(=O)(=O)c1ccccc1	0.1	-7	i	-1	6	11	-0.5	4.5	0.67	0.0
41	COC(=O)c1ccc([C@@H](O)[C@H](C)C(=O)CC(=O)OC(C)(C)C)cc1	0.3	-12	i	-2	7	11	24	-1.3	x	-0.1
42	CCc1ccc(OCC(=O)Nc2ccc(N3CCN(S(C)(=O)=O)CC3)cc2)cc1	-0.5	-14	x	2	1	5	-2.9	0.8	0.69	-0.5
43	COc1ccccc1NC(=O)c1ccc(CN2CCOCC2)cc1	1.0	-20	x	0	x	x	x	x	0.77	-0.1
44	O=C1NC(=S)N/C1=C/c1ccc(Oc2ccc(C(F)(F)F)cc2[N+](=O)[O-])c(Cl)c1	-0.7	3	i	-8	10	1	-0.1	2.5	0.66	4.3
45	CC(C)NC(=O)COC(=O)c1ccc(NS(=O)(=O)c2ccc3c(c2)OCCO3)cc1	0.8	-1	x	3	x	x	x	x	0.61	0.6
46	Cc1cc(C)cc(NS(=O)(=O)c2coc(C(N)=O)c2)c1	0.1	-13	i	-5	10	9	2.8	-1.5	0.7	4.1
47	COc1ccc(C2CC(=O)Nc3cc(C)c(C)cc32)c(OC)c1OC (stereo not given)	0.1	-6	x	-8	x	x	x	x	0.81	3.7
48	N#C/C(=C\c1cccc(Oc2ccccc2)c1)C(=O)N1CCOCC1	1.9	-20	i	-14	-25*	7.1*	2.1*	7.9	0.69	4.8
49	Cc1ccc(NC(=O)c2ccc(CSc3nnnn3C)cc2)cc1	0.0	-5	x	1	x	x	x	x	0.71	1.4
50	N#C/C(=C\c1cccs1)C(=O)Nc1ccccn1	-3.8	-53	i	-6	13	9	-4.5	2.7	0.68	1.5
51	Nc1sccc1C(=O)c1ccc(Cl)cc1	x	-13	i	x	0	0	27	5.9	0.64	1.9
52	Clc1ccc(Cl)c(OCCN2CCCC2)c1	1.0	6	i	x	4	6	0.1	2.0	0.66	0.7
53	COc1ccc(C(=O)Nc2nc(CC(=O)NCCc3ccccc3OC)cs2)cc1	-1.0	-12	i	0	-1	7	0.6	0.0	0.65	-1.4
54	CCOC(=O)C1CSc2[nH]c(=O)sc2C1c1ccccc1 (stereo not given)	-0.1	-6	x	2	x	x	x	x	0.7	3.1
55	CN(C)c1nc(-c2ccccc2)ncc1S(=O)(=O)c1ccccc1	0.7	17	i	-13	-25	-34	-5.3	-1.0	0.7	1.6
56	Nc1cc(C(=O)N2CCN(c3ccc([N+](=O)[O-])cc3)CC2)ccc1N1CC2CC(C1)c1cccc(=O)n1C2 (stereo not given)	-1.1	7	i	4	-10	-14	-0.5	4.0	0.68	8.7
57	CCOc1ccccc1N1CCN(C(=O)C(Sc2ccccc2)c2ccccc2)CC1 (stereo not given)	2.2	9	x	-5	x	x	x	x	0.72	-0.7
58	Cc1cccc(CSCCNC(=S)Nc2ccccc2)c1	-0.6	6	x	1	x	x	x	x	0.69	4.6
59	COc1cccc(C(=O)NCC(c2ccco2)N2CCc3ccccc3C2)c1 (stereo not given)	0.7	18	i	-2	6	-9	0.6	-0.8	0.68	2.0
60	COc1cc(C(=O)Oc2cccc(C(=S)N3CCOCC3)c2)cc(OC)c1OC	0.4	0	i	-15	-2	-12	-0.3	7.6	0.67	1.5
61	COc1cc(NC(=O)CN2C(=O)C(c3ccccc3)=NC2(C)C)cc(OC)c1	1.7	-9	i	-1	-3	7	-0.2	-5.6	0.7	2.5

# The list is partial; count on the stated rates, not on these rows.
